High-throughput results from PubChem BioAssay.
Insulin prom inh: TRM-6 insulin promoter activity inhibition | TRM-6 cells (human fetal islet line), insulin promoter-eGFP reporter, imaging; reporter expression induced with tamoxifen | inhibition, % at 2 µM | 130,000 tested, 0.9% active;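 active = inhibition above the mean plus 3 SD, with well images judged a real hit on visual review, cut at about 60% in these data, passing the limit was not always enough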
RGS16-Gao HTS: modulates binding between human RGS16 and Galphao. bead-based flow cytometry RGS16-Galphao binding, fluorescence; actives lie on both sides. binding response (% of control), % at 10 µM. 220,000 tested, 0.38% active;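 active = below 25% or above 175%, edge rows of some plates excepted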;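 note: Galphao activated by GDP with aluminum fluoride before binding; 100% = wells without compound and 0% = beads without RGS; some results beyond the cut were filed as inactive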
Target sequence (O15492 whole entry, looked up): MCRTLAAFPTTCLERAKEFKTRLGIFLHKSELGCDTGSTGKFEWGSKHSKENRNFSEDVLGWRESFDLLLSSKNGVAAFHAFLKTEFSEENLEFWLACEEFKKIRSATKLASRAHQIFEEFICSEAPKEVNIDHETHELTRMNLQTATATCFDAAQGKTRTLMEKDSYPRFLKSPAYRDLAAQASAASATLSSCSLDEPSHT
Target sequence (P09471 whole entry, looked up): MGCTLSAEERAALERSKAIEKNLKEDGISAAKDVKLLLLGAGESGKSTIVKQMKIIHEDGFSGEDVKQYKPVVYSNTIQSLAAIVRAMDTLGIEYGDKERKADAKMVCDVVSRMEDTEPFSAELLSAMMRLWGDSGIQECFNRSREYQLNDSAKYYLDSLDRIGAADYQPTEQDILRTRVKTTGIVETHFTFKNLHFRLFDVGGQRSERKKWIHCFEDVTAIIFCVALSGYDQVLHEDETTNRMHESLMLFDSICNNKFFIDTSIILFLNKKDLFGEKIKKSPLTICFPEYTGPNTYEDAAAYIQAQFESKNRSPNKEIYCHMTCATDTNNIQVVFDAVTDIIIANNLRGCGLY
HSV replic up: increases HSV replication in cells; 220,000 tested, 0.005% active; HSV replication augmentation in cells, fold increase; maximum fold increase;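 active = peak rise of 1.5-fold or more in the series; tested in PC3 cells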;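 note: first round at 10 µM; read as green reporter fluorescence; hits show the peak of a series up to 25 µM; 1 = signal of infected wells without compound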
PKD1 kinase inh: PKD1 (human) kinase inhibition; Q15139; 200,000 tested, 0.056% active; inhibition, %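 (about 10 µM by stock and volumes)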; AID 797; PKD1 kinase fluorescence polarization assay;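 active = inhibition of 50% or more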;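 note: controls were vehicle for no effect and a reference inhibitor for full effect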
GALR2 agonist: activates the human galanin receptor 2. AID 803. GALR2-expressing cells, agonist activation read-out. O43603. activation, %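 (tested at 5 µM)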. 140,000 tested, 0.48% active;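 active = above mean plus 3 SD of all compounds, about 5% in these data, not always enough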;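 note: 0% = vehicle buffer wells and 100% = reference agonist at full effect; tested in CHO reporter cells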
Target sequence (O43603 whole entry, looked up): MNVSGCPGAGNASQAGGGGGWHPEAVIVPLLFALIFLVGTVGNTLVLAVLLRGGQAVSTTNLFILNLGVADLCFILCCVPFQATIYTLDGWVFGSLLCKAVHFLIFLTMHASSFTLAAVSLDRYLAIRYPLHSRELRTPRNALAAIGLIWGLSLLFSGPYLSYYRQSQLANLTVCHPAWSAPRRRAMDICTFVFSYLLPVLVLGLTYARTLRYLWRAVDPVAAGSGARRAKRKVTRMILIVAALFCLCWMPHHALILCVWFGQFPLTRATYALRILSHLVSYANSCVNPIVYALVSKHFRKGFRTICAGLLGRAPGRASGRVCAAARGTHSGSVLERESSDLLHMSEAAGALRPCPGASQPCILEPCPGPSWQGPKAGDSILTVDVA
Insulin prom inh cell count: also measured in Insulin prom inh; calls as there; normalized cell count, %; measured here: cell count, toxicity; reference of the scale not given here;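 cells exposed to compound for 48 h; stained nuclei by imaging scaled within each plate; lower means fewer cells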
HSV replic up primary fold: also measured in HSV replic up; calls as there; fold increase; compound at 10 µM; measured here: primary screen fold increase 10 uM; tested in PC3 cells;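 GFP signal in the first replicate; 1 = infected wells without compound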
Numbers without * were called inactive; i = inactive; x = not tested or not shown.

nr	compound	Insulin prom inh	Insulin prom inh cell count	RGS16-Gao HTS	HSV replic up	HSV replic up primary fold	PKD1 kinase inh	GALR2 agonist
1	O=C1CC[C@@H](CN(Cc2ccccn2)Cc2nc(-c3ccc(C(F)(F)F)cc3)no2)N1	x	x	114	i	1.1	4	x
2	CC(=O)Nc1ccc(NC(=O)C/C(C)=N/NC(=O)C(=O)N2CCCC2)cc1	x	x	102	i	0.86	12	-1.9
3	N#Cc1ccsc1NC(=O)c1cnccn1	x	x	94	i	0.92	-1	-1.0
4	COc1ccc(CC(C)N2CCN(c3ccccc3)CC2)cc1OC (stereo not drawn)	-23	127	98	i	1.1	-3	-1.0
5	O=C1OC(c2ccccc2)=C/C1=C\N1CCOCC1	27	98	99	i	0.77	-12	-0.9
6	O=C(Nc1nc(-c2ccc(Cl)cc2)cs1)c1cccnc1	-129	103	100	i	0.8	-3	0.2
7	O=C(NCc1cccnc1)c1ccccc1NS(=O)(=O)c1ccc(F)cc1F	x	x	99	i	0.89	x	x
8	CC(OCC(O)CNCC1COc2ccccc2O1)c1ccc(Cl)cc1 (stereo not drawn)	x	x	91	i	0.82	-7	x
9	CCOc1cccc(C(=O)NC(=S)Nc2cccc(NC(=O)c3ccccc3Cl)c2)c1	19	138	96	i	0.89	1	-0.7
10	COc1cc(OC)cc(C(=O)Nc2ccc(NC(=O)c3ccco3)c(Cl)c2)c1	38	126	102	i	0.89	1	x
11	C=CCn1c(SCC(=O)Nc2nccs2)nnc1-c1cc2cccc(OC)c2o1	x	x	132	i	0.84	2	-2.2
12	C/C=C(\C)C(=O)Nc1cccc(C2=NOC3(C2)C[C@@H](C(N)=O)N(C(=O)c2ccccc2C(=O)c2ccccc2)C3)c1 (stereo partly drawn)	x	x	105	i	1.1	x	x
13	CCOc1ccc(C(=O)NCC(=O)OCC(=O)Nc2cccc(S(=O)(=O)N3CCCC3)c2)cc1	x	x	95	i	0.93	x	x
14	Cc1ccc(NC(=O)COC(=O)CCC(=O)c2cccs2)cc1C	x	x	99	i	1	-7	x
15	CCC(=O)NC(=S)Nc1ccccc1OC	19	57	102	i	0.88	-6	-2.7
16	Cc1cc(C)c(OCCCCN2CCC(C)CC2)c(Br)c1	-41	115	104	i	0.71	1	x
17	c1ccc(OCCCn2nnc(-c3cccnc3)n2)cc1	-29	80	96	i	0.97	1	0.5
18	O=C(COC(=O)c1cnccn1)c1ccc([N+](=O)[O-])cc1	x	x	101	i	1.2	x	x
19	Cc1cc([N+](=O)[O-])nn1Cc1ccccc1F	-2	115	100	i	0.96	-5	0.6
20	CCC(C)(C)NC(=O)C(c1cccs1)N(C(=O)c1ccn[nH]1)c1ccccc1 (stereo not drawn)	x	x	102	i	1	5	x
21	O=C(Nc1ccc(F)cc1)C(=O)C1C(=O)Nc2ccccc21 (stereo not drawn)	x	x	96	i	1.1	x	x
22	CC(=O)C1=C(O)C(=O)N(CCN2CCOCC2)C1c1ccccc1 (stereo not drawn)	21	80	105	i	0.85	-9	-0.9
23	COc1ccc(C(C)=O)cc1CN1C(=O)C(C)N(c2ccc(C)cc2)C1=O (stereo not drawn)	x	x	92	i	1.1	7	-3.2
24	c1coc(Cn2c(SCc3nc4ccccc4[nH]3)nnc2-c2cccs2)c1	-123	94	105	i	0.91	6	0.2
25	CCOC(=O)c1cnn2c(C(F)(F)F)cc(-c3ccccc3)nc12	3	122	108	i	0.76	-4	0.1
26	COc1ccc(-c2cc(C(F)F)nc(-n3nc(C)cc3C)n2)cc1	-13	70	100	x	x	19	-2.5
27	CCN(CC)S(=O)(=O)c1ccc(OC)c(-n2cnnn2)c1	x	x	100	i	1	-4	x
28	O=C(NCc1cccc(CNC(=O)c2ccco2)c1)c1ccco1	-33	96	94	i	1	-12	-1.8
29	CCCCOc1cccc(C(=O)N(Cc2ccco2)C2CCS(=O)(=O)C2)c1 (stereo not drawn)	x	x	104	i	1.1	-8	-0.4
30	O=C(COC(=O)c1ccc(S(=O)(=O)N2CCc3ccccc3C2)cc1)NC(=O)NCc1ccco1	26	89	100	i	1.1	-3	-2.8
31	COC(=O)c1ccc(Cn2nc(C(F)(F)F)cc2C)cc1	18	106	111	i	0.97	4	0.1
32	Cc1ccc(C(=O)O/N=C/c2c(Cl)n(C)c3ccccc23)cc1	-2	114	104	i	0.93	2	-1.5
33	CC(C)CNCC1OCc2ccccc2CO1	x	x	105	i	0.94	x	x
34	Cc1nn(-c2cc(N3CCOCC3)ccc2[N+](=O)[O-])c(=O)c2ccccc12	-39	50	101	i	0.86	3	-5.0
35	CCCCN1C(=O)C(=Nc2cccc3cnccc23)c2ccccc21	x	x	102	i	0.99	1	x
36	CC1CCCN(C(C(=O)Nc2ccc(C(C)C)cc2)c2ccc3c(c2)OCO3)C1 (stereo not drawn)	x	x	105	i	0.97	-11	-2.2
37	CCCN1CCN(CCCNC(=O)c2cc3c(=O)n(C)c4ccccc4c3n2C)CC1	x	x	107	i	1.5	7	-3.0
38	O=C(N/N=C/c1ccco1)c1cccc(N2CCCC2=O)c1	10	93	22	i	1.1	0	0.7
39	CCC1(C)Cc2ccccc2-c2nc3n(c(=O)c21)CCCCC3 (stereo not drawn)	-9	99	104	i	1.1	2	-1.7
40	CN(CC1COc2ccccc2O1)C(=S)NC1CCCCC1 (stereo not drawn)	x	x	98	i	1	x	x
41	C=CCNC(=S)NS(=O)(=O)c1cccs1	10	77	99	i	1	-5	x
42	COc1ccc(N2Cc3ccccc3C2=NC(=O)c2ccc(C)cc2)cc1OC	x	x	99	i	0.98	-5	x
43	NNC(=O)/C(=N/Nc1ccccc1)S(=O)(=O)c1ccc(Cl)cc1	31	86	87	i	0.67	-4	-1.0
44	O=C(Nc1cccc(-c2nc3ccccc3s2)c1)c1cc(-n2cnnc2)ccc1Cl	x	x	103	i	0.81	-5	-0.1
45	Cc1c(/C=N/NC(=O)c2cc(C(C)(C)C)[nH]n2)c2ccccc2n1C	x	x	98	i	0.73	x	x
46	CN1C(=S)N2CCCN2C1c1ccccc1 (stereo not drawn)	x	x	97	i	0.94	x	x
47	COC(=O)CSc1nc2ccccc2nc1SCC(=O)OC	-27	67	97	i	0.98	-10	-1.1
48	CNCC(=O)N(CC(C)C)c1c(N)n(CC(C)C)c(=O)[nH]c1=O	x	x	104	i	0.91	-2	x
49	COC(C(=O)Nc1ccc(S(=O)(=O)Nc2ccc(F)cc2)cc1)c1ccccc1 (stereo not drawn)	x	x	103	i	1	-7	-0.1
50	Cc1cc(-c2csc(N)n2)c(C)n1CCC(C)C	37	66	83	i	1.1	-7	-1.6

(list continues)
nr	compound	Insulin prom inh	Insulin prom inh cell count	RGS16-Gao HTS	HSV replic up	HSV replic up primary fold	PKD1 kinase inh	GALR2 agonist
51	COC(=O)c1cc(Br)c(=O)n(-c2ccccc2OC)c1	x	x	96	i	0.89	-13	-0.6
52	CCN1CCN(C(=O)C2c3cc(OC)c(OC)cc3C(=O)N3CCc4ccccc4C23)CC1 (stereo not drawn)	-6	106	104	x	x	8	-0.8
53	Cc1cccc(OCC(=O)NCC(=O)N/N=C/c2cc(Br)ccc2OCc2ccccc2)c1	15	93	143	i	0.92	3	0.6
54	C/C(=N\Nc1cccc([N+](=O)[O-])c1)c1cc(F)ccc1O	x	x	99	i	0.96	x	x
55	Cc1cc(C)n(-c2ccc(C(=O)Nc3nc4ccccc4s3)cc2)n1	-15	120	94	i	0.92	-12	-0.8
56	COC(=O)C1CC(=O)N(c2ccc(C)cc2)C1 (stereo not drawn)	x	x	107	i	0.88	-15	x
57	Nn1c(SCC(=O)N2CCOCC2)nnc1-c1ccccc1Cl	-111	40	93	i	0.95	5	0.2
58	COc1ccc(-n2nc(C#N)c(Cl)cc2=O)cc1	-4	32	103	i	0.61	-6	x
59	Cc1ccc2ncnc(NCCCN3CCOCC3)c2c1	12	111	100	i	0.78	-1	-1.9
60	Cc1cccc2cc(CN(Cc3ccco3)S(=O)(=O)c3ccc4c(c3)OCCO4)c(=O)[nH]c12	x	x	96	i	0.91	-15	-1.2

Four entries drawn at random from those above, as already listed:
nr	compound	Insulin prom inh	Insulin prom inh cell count	RGS16-Gao HTS	HSV replic up	HSV replic up primary fold	PKD1 kinase inh	GALR2 agonist
58	COc1ccc(-n2nc(C#N)c(Cl)cc2=O)cc1	-4	32	103	i	0.61	-6	x
52	CCN1CCN(C(=O)C2c3cc(OC)c(OC)cc3C(=O)N3CCc4ccccc4C23)CC1 (stereo not drawn)	-6	106	104	x	x	8	-0.8
57	Nn1c(SCC(=O)N2CCOCC2)nnc1-c1ccccc1Cl	-111	40	93	i	0.95	5	0.2
54	C/C(=N\Nc1cccc([N+](=O)[O-])c1)c1cc(F)ccc1O	x	x	99	i	0.96	x	x

Next part.
nr	compound	Insulin prom inh	Insulin prom inh cell count	RGS16-Gao HTS	HSV replic up	HSV replic up primary fold	PKD1 kinase inh	GALR2 agonist
61	COc1cc(OC)cc(C(=O)NCc2cc(C)nc3ccccc23)c1	0	121	101	i	0.82	4	x
62	O=C(NCCCN1CCCC1=O)c1ccc(CNS(=O)(=O)c2ccc(F)cc2)cc1	x	x	113	i	1	-2	-1.5
63	Cc1cc(C)nc(SCC(=O)Nc2ccc(N3CCOCC3)c(Cl)c2)n1	18	58	100	i	0.78	-6	-2.5
64	O=C1CCN(C(=O)/C=C/c2ccccc2)c2ccccc21	39	71	101	i	0.89	0	x
65	COC(=O)c1ccc2c(=O)n(NC(=O)C(c3ccccc3)c3ccccc3)c(=S)[nH]c2c1	10	166	105	i	1	-4	-1.3
66	CCOC(=O)N1CCC(c2cc(=O)n3[nH]c(-c4ccccc4)cc3n2)CC1	x	x	100	i	0.95	-6	-1.6
67	Cc1cc(C)n2ncnc2n1	-11	158	103	i	0.85	-3	-3.2
68	N=C(CC1CC(=O)NC(=O)C1)C1=C(O)CCCC1=O	-18	99	101	i	1	4	-0.8
69	Cc1cccc(NC(=O)NCc2ccc3c(c2)cc(C)n3C)c1	x	x	102	i	1.2	6	-1.5
70	O=C(Cc1ccccc1)NCc1ccncc1	-115	111	101	i	0.99	-3	x
71	CCOC(=O)C1CC(c2ccccc2)=NNC1=O (stereo not drawn)	26	162	98	i	0.94	-5	x
72	CC(/C=N/N1CCN(Cc2ccccc2)CC1)=C\c1ccccc1	x	x	140	i	1.1	1	x
73	Cc1cc(C)n(C(=O)CNC(=O)C(c2ccccc2)c2ccccc2)n1	28	64	104	i	0.97	1	-0.6
74	CC1CC(C)CN(CCOc2ccccc2-c2ccccc2)C1 (stereo not drawn)	-464	73	88	i	0.85	1	-1.1
75	COc1cccc(OCCNC(=O)c2ccccc2Sc2ccccc2C#N)c1	-23	123	101	i	0.98	-7	0.2
76	CCOC(=O)C1CCCN(C(=O)c2ccc3c(c2)OCO3)C1 (stereo not drawn)	-38	72	39	i	1	3	-4.5
77	CC(=O)C(Cc1cccc(F)c1)(Cc1cccc(F)c1)C(C)=O	x	x	104	i	1	3	x
78	O=C(O)C1CCCCC1C(=O)NCCc1cccc(Cl)c1 (stereo not drawn)	61	152	103	i	0.93	4	-1.6
79	CC12CC3CC(C)(C1)CC(C(=O)NC1=NCCS1)(C3)C2	-43	104	100	i	0.77	-6	0.2
80	CN(C)S(=O)(=O)c1cccc(NC(=O)COC(=O)CNC(=O)c2ccccc2F)c1	x	x	104	i	1	x	x
81	CC1(C)CC(NS(=O)(=O)c2ccccc2)CC(C)(C)N1	x	x	108	i	0.87	-7	-0.1
82	COC(=O)c1scc(S(C)(=O)=O)c1-n1cccc1	x	x	99	i	0.95	x	x
